GLA inh pH 4.5 = qHTS Assay for Inhibitors of Human alpha-Galactosidase at pH 4.5; Alpha-galactosidase A (Homo sapiens), P06280; purified enzyme, 4-MU-alpha-Gal fluorescence, pH 4.5; activity change, negative = inhibition, % at 105 µM; 230,000 tested, under 10 active; inconclusive = small, poorly fitted or top-dose-only inhibition, or a rising curve; inactive = flat fitted curve, though single readings scatter; no compound was filed as active;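 also: 0% = full activity with enzyme and -100% = basal without enzyme; dose as in the result columns while the protocol names 77 µM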
miR-21 FLuc = qHTS Assay for Modulators of miRNAs and/orActivators of miR-21; 340,000 tested, under 10 active; Potency, µM (series often up to 38.3 µM), for inactives: at the top dose reporter change, positive = more light; HeLa miR-21 FLuc reporter, luciferase, 48 h; AID 2288, 2010; active = well fitted rising curve with a large enough effect; inconclusive = small, poorly fitted or top-dose-only effect; inactive = no such curve, though single readings can be large or run the other way;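 also: % of control where 0% means no effect; miR-21 action dims this reporter so a rising signal means less miR-21 action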
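Using DMEM plus 10% FBS, HeLa miR-21-FLuc cells are incubated with test compounds (final up to about 40uM) for 48 hours; firefly luciferase signal is then imaged following reagent-mediated lysis.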
Rango release inh = qHTS Assay for Inhibitors of RanGTP induced Rango (Ran-regulated importin-beta cargo) - Importin beta complex dissociation | Biochemical FRET Rango-importin beta, RanGTP-induced dissociation | 340,000 compounds, 0.071% hits | AID 540253, 2011 | Potency, µM (series often up to 46.1 µM), for inactives: top-dose activity change, negative = inhibition; active means falling FRET ratio curve, often poorly fitted, with flat reads before Ran was added; inconclusive means other falling curves, or compound fluorescence or quenching; inactive means flat or rising ratio curve;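 also: potency is read from the fitted curve at half-maximal effect; % of control where 0% means no effect; nearly all actives have a fitted effect of over 45% in size; -100% = wells without RanGTP and RCC1; the record marks most hits as doubtful in a second field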
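Quantitative HTS using a FRET biosensor: 0.1 uM Rango, 0.25 uM importin beta, 0.6 uM Ran, 2 mM GTP, 0.2 uM RCC1 final, PBS with DTT, Tween-20 and BSA. Post-read taken 45 min after Ran addition.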
Rango complex inh = qHTS Assay for Inhibitors of Rango (Ran-regulated importin-beta cargo) - Importin beta complex formation. Importin subunit beta-1 (Homo sapiens), Q14974. Rango CFP/YFP FRET sensor + importin beta, 45 min. Potency, µM (series often up to 92.2 µM), for the others: top-dose inhibition of complex formation. 340,000 compounds, 0.031% hits. AID 540263, 2011; active = rising FRET ratio curve, often small or poorly fitted; inconclusive = mostly compound fluorescence or quenching in the first reads; inactive = flat curves in all reads;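 also: potency is read from the fitted curve at half-maximal effect; 0% = DMSO wells and 100% = buffer wells lacking importin beta; nearly all actives have a fitted effect of over 15% in size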
Target sequence (Q14974 whole entry, looked up): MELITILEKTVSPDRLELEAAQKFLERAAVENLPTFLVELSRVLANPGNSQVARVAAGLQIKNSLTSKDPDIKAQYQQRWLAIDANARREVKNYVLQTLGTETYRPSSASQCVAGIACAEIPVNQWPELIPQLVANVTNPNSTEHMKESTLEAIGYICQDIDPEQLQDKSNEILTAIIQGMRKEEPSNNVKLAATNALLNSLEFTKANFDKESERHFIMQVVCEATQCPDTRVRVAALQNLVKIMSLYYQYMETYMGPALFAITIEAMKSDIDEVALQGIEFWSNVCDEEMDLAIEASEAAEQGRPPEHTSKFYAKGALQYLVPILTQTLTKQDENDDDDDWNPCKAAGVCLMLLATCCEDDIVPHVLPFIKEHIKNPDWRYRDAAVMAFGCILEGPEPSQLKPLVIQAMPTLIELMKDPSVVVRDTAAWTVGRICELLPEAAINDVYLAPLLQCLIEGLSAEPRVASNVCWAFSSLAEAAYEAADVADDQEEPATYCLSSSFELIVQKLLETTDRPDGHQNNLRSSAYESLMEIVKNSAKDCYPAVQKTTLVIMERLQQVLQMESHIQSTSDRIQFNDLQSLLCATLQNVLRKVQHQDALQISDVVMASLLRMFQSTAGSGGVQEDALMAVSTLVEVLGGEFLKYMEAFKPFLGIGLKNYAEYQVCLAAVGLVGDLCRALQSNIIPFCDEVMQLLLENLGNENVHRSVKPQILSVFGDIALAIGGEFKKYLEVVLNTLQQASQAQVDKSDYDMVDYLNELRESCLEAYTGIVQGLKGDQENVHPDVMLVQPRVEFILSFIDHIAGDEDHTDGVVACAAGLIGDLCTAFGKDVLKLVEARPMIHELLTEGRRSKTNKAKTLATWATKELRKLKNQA
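Inhibition scored from the CFP 486 nm/YFP 530 nm FRET ratio 45 min after adding 0.125 microM importin beta to 50 nM Rango biosensor preincubated 5 min with compound (room temperature, PBS with DTT, Tween-20, BSA). No-importin wells as positive control.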
* = called active by the depositor; ? = inconclusive; / = no result given; & = joins results of further samples. Some of the compounds tested. The share of hits here may be higher or lower than overall.

Start of the listing, in advance (5 entries):
SMILES | GLA inh pH 4.5 | miR-21 FLuc | Rango release inh | Rango complex inh
O=C(NCCS(=O)(=O)NC1CCCCC1)c1ccc2c(c1)OCO2 | / | / | -6.4% | -1.6%
O=C1CCCCC(=O)N(c2ccccc2)c2ccccc21 | -7.5 | -0.4% | -4.0% | -1.3%
COc1ccc(C2=NNC(=Nc3cc(S(=O)(=O)N(C)C)ccc3C)SC2)c(OC)c1 | -6.4 | 27.9% | 7.5% | -1.6%
Cc1ccc(NC(=O)c2ccccc2N(C)S(=O)(=O)c2ccccc2)c(C)c1 | -29.1 | -3.4% | 10.8% | 0.6%
CN(c1ccc(C(=O)N2CCCCCC2)cc1)S(=O)(=O)c1ccccc1 | / | / | 5.8% | -0.5%

Results, previewed entries included:
SMILES | GLA inh pH 4.5 | miR-21 FLuc | Rango release inh | Rango complex inh
O=C(NCCS(=O)(=O)NC1CCCCC1)c1ccc2c(c1)OCO2 | / | / | -6.4% | -1.6%
O=C1CCCCC(=O)N(c2ccccc2)c2ccccc21 | -7.5 | -0.4% | -4.0% | -1.3%
COc1ccc(C2=NNC(=Nc3cc(S(=O)(=O)N(C)C)ccc3C)SC2)c(OC)c1 | -6.4 | 27.9% | 7.5% | -1.6%
Cc1ccc(NC(=O)c2ccccc2N(C)S(=O)(=O)c2ccccc2)c(C)c1 | -29.1 | -3.4% | 10.8% | 0.6%
CN(c1ccc(C(=O)N2CCCCCC2)cc1)S(=O)(=O)c1ccccc1 | / | / | 5.8% | -0.5%
NC(=O)Cc1nc(-c2ccc(F)cc2)cs1 | 0.3 | -1.4% | 3.7% | 0.3%
N#Cc1nc(-c2ccco2)oc1N1CCN(Cc2ccccc2)CC1 | 1.6 | -9.6% | 5.0% | 2.3%
COc1ccc(C(=O)N[C@H](C(=O)Nc2ccc(S(=O)(=O)N3CCOCC3)cc2)C(C)C)cc1 | -9.7 | 6.3% | 20.9% | -1.8%
COCc1ccc([C@@H]2C[C@H]3CN(Cc4cccnc4)C(=O)[C@]34CCCN24)o1 | 8.8 | -0.8% | 3.5% | 2.1%
Cc1ccc(NC(=S)Nc2c(C)n(C)n(-c3ccccc3)c2=O)cc1 | 0.0 | -8.0% | 0.0% | 0.5%
Cc1ccccc1C(=O)N1CCC(C(=O)Oc2ccc(C#N)cc2)CC1 | / | -5.1% | 6.6% | 0.9%
CCc1ccccc1Oc1coc2cc(O)ccc2c1=O | / | -26.5% | -0.2% | -3.7%

Whole records as entered above:
`N#Cc1nc(-c2ccco2)oc1N1CCN(Cc2ccccc2)CC1` across the screens: GLA inh pH 4.5: 1.6; miR-21 FLuc: -9.6%; Rango release inh: 5.0%; Rango complex inh: 2.3%
`COc1ccc(C2=NNC(=Nc3cc(S(=O)(=O)N(C)C)ccc3C)SC2)c(OC)c1` across the screens: GLA inh pH 4.5: -6.4; miR-21 FLuc: 27.9%; Rango release inh: 7.5%; Rango complex inh: -1.6%
`O=C1CCCCC(=O)N(c2ccccc2)c2ccccc21` across the screens: GLA inh pH 4.5: -7.5; miR-21 FLuc: -0.4%; Rango release inh: -4.0%; Rango complex inh: -1.3%

(listing goes on)
SMILES | GLA inh pH 4.5 | miR-21 FLuc | Rango release inh | Rango complex inh
CCOC(=O)C1(CCCc2ccccc2)CCN(C(=O)CCn2cncn2)CC1 | -14.5 | -12.8% | -13.6% | -3.2%
OC(CNCc1ccccc1)COc1ccccc1 (centres undefined) | / | / | 11.0% | 1.6%
COc1ccc(CCC(=O)N(c2nnc(-c3cccnc3)s2)C(C)C)cc1 | -1.8 | -11.6% | -6.6% | ?
CCc1ccc(C(=O)CSc2nnc(C3CC3)n2C2CC2)cc1 | / | / | -16.2% | -2.4%
CCC(=O)N1CCc2cc(S(=O)(=O)N3CCc4ccccc4C3)ccc21 | 6.8 | -8.5% | -9.5% | 1.7%
CN(c1ccc(F)cc1)S(=O)(=O)c1ccc2[nH]cc(C(=O)O)c(=O)c2c1 | -7.3 | -2.6% | -2.2% | 0.0%
Cc1[nH]c(=O)[nH]c(=O)c1CSc1nnc([C@H](CC(C)C)NC(=O)OC(C)(C)C)o1 | -4.9 | -10.5% | -5.8% | 2.3%
N#Cc1nc(COc2ccccc2F)oc1NCCCn1ccnc1 | 1.1 | -7.8% | -0.3% | 0.5%
CCc1nc(SCC(=O)c2cc(C)ccc2C)n[nH]1 | -4.1 | -7.1% | -9.2% | 0.2%
C=CCNCCOc1ccc(C)cc1[N+](=O)[O-] | 2.8 | 0.3% | 0.2% | -2.3%
COc1ccccc1N1CCN(CC(O)COc2cccc3ccccc23)CC1 (centres undefined) | 0.5&-4.4&-6.4 | 4.8%&2.8% | 5.6%&18.6% | -2.0%&2.1%
CCn1cc([N+](=O)[O-])c(C(=O)N2N=C(c3ccc(Cl)c(Cl)c3)CC2c2ccccc2O)n1 (centres undefined) | -11.3 | ? | -11.2% | 4.7%
Cc1cccc(C(=O)n2c(=S)nc3cc(C)ccn32)c1 | -1.1 | -68.6% | 0.5% | 0.1%
CCCC(=O)n1nc(-c2ccc(C)cc2)nc1NCc1ccco1 | 1.6 | -37.0% | 4.0% | -1.8%
COC(=O)c1cnc(SCc2ccc(C)cc2)n1C | 7.2 | -37.9% | 3.0% | 0.9%
CN=C1NC(C)(C)C2CCC(C)(CC2)S1 | / | / | 0.3% | 1.0%
CCN1C(=O)CC(n2c(C)nc3ccccc32)C1=O (centres undefined) | 3.2 | 0.8% | 4.4% | -3.6%
CCc1cc2c(=O)n(CC(C)C)cnc2s1 | -3.6 | -59.8% | 19.0% | 1.8%
COc1ccc(C(C[N+](=O)[O-])c2c(-c3ccccc3)cc3ccccn23)cc1 (centres undefined) | -3.2 | -4.8% | -4.8% | 4.3%
C[C@@H]1CN([C@@H](C)CO)C(=O)c2cc(N(C)C)ccc2O[C@@H]1CN(C)S(C)(=O)=O | / | / | -5.8% | -3.8%
CN(Cc1ccco1)C(=O)Cn1cc(S(=O)(=O)N2CCCC2)c(S(=O)(=O)N2CCCC2)c1 | / | -1.2% | -18.2% | 2.4%
O=C1CCC([N+](=O)[O-])C(c2cccc([N+](=O)[O-])c2)N1 (centres undefined) | -3.2 | 7.3% | -0.4% | -0.7%
Cc1ncc(CO)c(/C=N/NC(=S)Nc2cccc(Cl)c2)c1O | 6.3 | 19.8% | ? | ?
CCN(CC(O)CON=C1c2ccccc2-c2ccccc21)S(=O)(=O)c1ccc(Cl)cc1 (centres undefined) | -3.9 | 1.7% | -3.1% | -0.6%

Random excerpt: 2 records from the list.
SMILES | GLA inh pH 4.5 | miR-21 FLuc | Rango release inh | Rango complex inh
O=C1CCC([N+](=O)[O-])C(c2cccc([N+](=O)[O-])c2)N1 (centres undefined) | -3.2 | 7.3% | -0.4% | -0.7%
CCN1C(=O)CC(n2c(C)nc3ccccc32)C1=O (centres undefined) | 3.2 | 0.8% | 4.4% | -3.6%

Later entries:
SMILES | GLA inh pH 4.5 | miR-21 FLuc | Rango release inh | Rango complex inh
COc1ccc(CNC(=O)C2CCN(S(=O)(=O)N3CCCC3)CC2)c(OC)c1 | / | -2.8% | 3.7% | -4.0%
Cc1cc2sc3ccccc3c(=O)c2c(C)c1O | -11.3 | -52.2% | ? | ?
O=C(CSc1nnc2scc(-c3ccccc3)n12)Nc1nsc(-c2ccccc2)n1 | 1.2 | -5.2% | -6.9% | 1.7%
COc1cc(NC(=O)CSc2nc(C3CC3)nc3ccccc23)cc(OC)c1 | / | -0.3% | 0.4% | 4.8%
COc1ccc(CC(=O)N/N=C(\C)CC(=O)Nc2ccc3c(c2)OCCO3)cc1OC | / | -16.3% | 13.7% | 1.7%
Cc1ccc2[nH]c3c(c2c1)CCNC3=O | / | -1.6% | -5.3% | -1.1%
COc1ccccc1NC(=O)CCC(=O)Nc1nnc(C2CCCCC2)s1 | / | -5.1% | -10.3% | -3.3%
CCc1cccc(NC(=O)C2CCCN(S(=O)(=O)c3cnc[nH]3)C2)c1 (centres undefined) | / | -3.6% | -1.5% | -1.6%
Cc1ccccc1-c1nc(CS(=O)(=O)CC(=O)NCc2ccc3c(c2)OCO3)c(C)o1 | -6.7 | -13.6% | -21.5% | -2.5%
COc1ccccc1CNC(=O)N1CCN(S(=O)(=O)c2ccccc2)CC1 | / | 4.2% | -3.6% | -0.4%
CC(C)c1ccc([N+](=O)[O-])cc1S(=O)(=O)N1CCN(C)CC1 | / | -2.9% | ? | 4.0%
CCc1ccc(OCC(=O)N/N=C/c2cc([N+](=O)[O-])ccc2N2CCCCCC2)cc1 | -8.3 | -3.2% | -7.3% | 1.8%
Cc1ccc(NC(=O)CSCC(=O)O)cc1 | 4.4 | -4.5% | -4.0% | -0.6%
CCc1ccccc1OCc1nc2ccc(S(=O)(=O)N3CCOCC3)cc2[nH]1 | -20.4 | 7.2% | -2.5% | ?
CSCCC(NS(=O)(=O)c1ccc(Cl)cc1)C(=O)O (centres undefined) | -0.9 | -0.5% | -0.1% | -1.2%
COc1ccc2c(CC(=O)Nc3ccc(OC)nc3)coc2c1 | 6.8 | -2.7% | 14.8% | 0.1%
O=C(NCCCN1CCOCC1)c1ccc(S(=O)(=O)Nc2ccccc2)cc1 | / | / | -8.6% | 0.9%
O=C(c1cccc(F)c1)N1CCC2(CC1)NCCc1[nH]cnc12 | / | -1.8% | -20.7% | 0.1%
O=C(OCc1nnc(-c2ccccc2)o1)c1ccc([N+](=O)[O-])s1 | / | / | 14.9% | -0.1%
CC1(C)CC(NC(=S)NC2CC2)CC(C)(C)N1 | 7.0 | 0.5% | -23.5% | ?
O=C1CC(N(C(=O)c2ccco2)c2cccc(Cl)c2)C(=O)N1c1cccc(Cl)c1 (centres undefined) | -5.3 | -2.5% | -3.2% | 0.8%
CCOc1cc(-c2nnc(NC(=O)C3=COCCO3)o2)cc(OCC)c1OCC | / | / | 16.6% | 3.8%
CC(=O)Oc1ccc(NC(=O)Cc2ccccc2)cc1 | 2.3 | -21.3% | 2.5% | 4.5%
COc1ccc(NC(=O)Cc2ccccc2F)cc1S(=O)(=O)N1CCCCC1 | / | / | -3.1% | -2.2%
CCCNNC(=O)C(O)(c1cccc(C)c1)c1cccc(C)c1 | -0.9 | 4.0% | -1.3% | 4.2%
CCOc1ccc(C(=O)Nc2c3c(nn2-c2ccccc2)CS(=O)(=O)C3)cc1 | / | -4.1% | -0.6% | -1.6%
COC(=O)c1ccc(C(=O)OC)c(NC(=S)N2CCN(c3ccccc3)CC2)c1 | 6.0 | -4.3% | -11.8% | 1.1%
C=C(C)n1c(=O)n(Cc2ccccc2C)c2ccccc21 | / | -15.2% | -9.9% | 1.4%
CN(C)C(=O)Cn1c(SCC(=O)NCc2ccc3c(c2)OCO3)nc2ccccc21 | 6.5 | 0.1% | 2.3% | 0.8%
O=C(CN1CCN(c2ccccn2)CC1)NC1CCCC1 | 2.6 | -4.3% | 9.0% | -0.8%
CC1=NN(c2ccc(C)cc2C)C(=O)C1C(c1ccccc1)C1C(=O)N(c2ccc(C)cc2C)N=C1C (centres undefined) | 2.1 | -7.0% | 7.9% | 1.6%
COC(=O)[C@]1(C)CCC[C@@]2(C)C3CC[C@]4(OC(C)=O)C[C@@]3(CCC21)CC4=O (some centres undefined) | / | / | 0.3% | 2.2%
CCCCN1C(=O)C(CC(=O)NCC)SC1=Nc1ccccc1 (centres undefined) | 0.5 | -7.1% | -6.4% | 0.0%
CC(=O)Nc1ccc(S(=O)(=O)N(Cc2ccco2)Cc2cc3ccccc3[nH]c2=O)cc1 | / | 15.7% | 6.9% | -2.3%
COc1ccc(NC(=O)/C(C#N)=C/c2ccc(-c3ccccc3C(=O)O)o2)cc1 | / | -22.3% | -4.2% | -3.3%
COc1ccccc1N1CCN(C(c2ccc(F)cc2)c2nnnn2C(C)C)CC1 (centres undefined) | -0.3 | -2.7% | -9.1% | -6.5%

Screening results from PubChem.
